# TSHR ag: agonists of human thyroid stimulating hormone receptor; P16473; HEK293-CNG-TSHR cells (CNG channel as cAMP sensor), membrane potential dye, cAMP; Potency, µM (series often up to 57.1 µM), for inactives: top-dose activation, most hits filed as activators; 73,000 compounds, 0.48% hits; AID 926; active = well fitted activation curve of enough size with the parental cells flat; inconclusive = any curve in the parental cells; inactive = parental cells flat and receptor cells flat or falling; also: potency is read from the fitted curve at half-maximal effect; % of control where 0% means no effect; weak receptor curves with flat parental cells got no call and are not listed
# Target sequence (P16473 whole entry, looked up): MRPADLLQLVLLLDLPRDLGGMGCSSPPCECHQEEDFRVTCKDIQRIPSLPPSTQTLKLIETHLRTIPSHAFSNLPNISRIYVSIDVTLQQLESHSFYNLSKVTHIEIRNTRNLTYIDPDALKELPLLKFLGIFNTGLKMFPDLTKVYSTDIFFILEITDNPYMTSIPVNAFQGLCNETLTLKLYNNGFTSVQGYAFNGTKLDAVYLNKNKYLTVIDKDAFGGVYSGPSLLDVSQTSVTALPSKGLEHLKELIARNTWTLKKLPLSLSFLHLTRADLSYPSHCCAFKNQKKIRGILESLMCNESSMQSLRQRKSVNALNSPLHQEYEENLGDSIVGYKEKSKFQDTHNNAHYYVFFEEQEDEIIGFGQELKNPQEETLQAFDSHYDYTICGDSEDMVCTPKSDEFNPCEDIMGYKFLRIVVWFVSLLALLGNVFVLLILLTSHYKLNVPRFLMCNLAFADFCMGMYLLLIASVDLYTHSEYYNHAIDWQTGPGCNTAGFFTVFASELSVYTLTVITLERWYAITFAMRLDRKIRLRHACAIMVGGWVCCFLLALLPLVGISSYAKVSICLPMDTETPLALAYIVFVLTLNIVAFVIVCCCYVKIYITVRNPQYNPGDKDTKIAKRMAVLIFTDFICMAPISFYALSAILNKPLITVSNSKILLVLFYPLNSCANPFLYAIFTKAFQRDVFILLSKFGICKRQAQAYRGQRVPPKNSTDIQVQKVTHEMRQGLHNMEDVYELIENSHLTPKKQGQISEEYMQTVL
#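 cAMP rise detected as CNG-channel membrane depolarization by fluorescent dye (emission 590 nm), 30 min after compound, following 60 min dye loading containing 100 uM RO 20-1724 at room temperature. Cells: TSHR/CNG HEK 293, with parental CNG HEK 293 as control.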
# AID923: qHTS Assay for Allosteric/Competitive Inhibitors of Caspase-1: Spectroscopic Profiling in AFC Spectral Region | Potency, µM (doses to about 57.5 µM), without a hit: at the top dose fluorescence increase, actives largely listed as activators | compound fluorescence, AFC spectral region (405/520 nm); almost no hit is shown here | 75,000 compounds, 1.1% hits; active = well fitted activation curve with a large enough effect; inconclusive = small, poorly fitted or top-dose-only effect;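 also: potency is read from the fitted curve at half-maximal effect; 0% is about no effect; scaled to a free AFC standard on each plate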
#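 Titrations up to 57 uM read every 20 sec for 3 min (405/520 nm) with 50 nM caspase 1 and 5 uM Ac-WEHD-AFC, pH 7.5 HEPES buffer. Fluorescence-vs-time intercept gave baseline, scaled against on-plate AFC standard.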
# Resorufin autofl: resorufin region autofluorescence; Compound fluorescence, resorufin region 547/598 nm, buffer; hits give high values; 59,000 compounds, 0.04% hits; AID 588; max dye-equivalent concentration, M; active = above 10 nM dye equivalent; inconclusive = 1 to 10 nM; inactive = 1 nM or less; a few of its hits are not listed in these tables; also: highest value over a series up to 38 µM
#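 Compounds in 100 mM Tris, pH 8.0, incubated 15 min at room temperature, then fluorescence read at 547 nm excitation/598 nm emission. Signal converted to dye-equivalent concentration via an on-plate six-point resorufin standard curve, per compound concentration.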
# A488 autofl: compound fluoresces in the A488 spectral region | compound autofluorescence, A488 spectral region, dye equivalency; hits give high values | max dye equivalency, M | 59,000 compounds, 0.1% hits | AID 591; active = above 10 nM dye equivalent; inconclusive = 1 to 10 nM; inactive = 1 nM or less; about half of its hits are not listed in these tables;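 also: highest value over a series up to 38 µM; compound alone in buffer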
#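 Read-out: relative fluorescence at 480/540 nm, expressed as Alexa 488 dye-equivalent concentration from a six-point A488 standard included per plate. Conditions: 100 mM Tris, pH 8.0; 15 min incubation, room temperature.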
# A647 fluor: A647 region autofluorescence. Compound fluorescence, A647 channel (570/671 nm), Tris buffer. max dye-equivalent concentration, M. 59,000 tested, under 10 active; active means above 1 µM dye equivalent; inconclusive means 0.1 to 1 µM; inactive means 0.1 µM or less;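 also: values scaled relative to a standard on each plate; highest value over a series up to 38 µM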
#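 Compounds pinned into 100 mM Tris pH 8.0, 15 min at room temperature, then read with 570 nm excitation/671 nm emission filters. Fluorescence normalized to an on-plate six-point Alexa 647 standard curve, giving dye-equivalent concentration per compound concentration.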
# * = called active by the depositor; i = inactive; ? = inconclusive; / = no result given; & = joins results of further samples; [ ] = dose if it differs, or a comment.
SMILES,TSHR ag,AID923,Resorufin autofl,A488 autofl,A647 fluor
Cn1c(NC(=O)C(C)(C)Oc2ccc(Cl)cc2)cc(=O)n(C)c1=O,34%,2.1%,/,/,/
CCOC(=O)N1CCN(c2cc(=O)n(Cc3ccc(F)cc3)c(=O)[nH]2)CC1,-4%,0.1%,i,i,4.3e-08
CCN1CCN(c2ccc(NC(=O)c3cccc4ncccc34)cc2)CC1,0%[11.4 µM],0.9%,i,i,2.2e-09
CCOCC(=O)Nc1nc2ccc(OCC)cc2s1,6%,0.3%,i,i,2.6e-08
NC[C@@H](O)CSCc1ccc(Cl)cc1,-2%[11.4 µM],4.5%[11.5 µM],i,i,2.9e-08
COC(=O)NC(c1ccccc1)C(C#N)C(=O)OC (stereo not given),-9%[11.4 µM],-1.0%[11.5 µM],/,/,/
COc1ccc2[nH]c(=O)c(CN(C(=O)NC3CCCCC3)C3CCCC3)cc2c1,0%,0.2%,i,i,5.1e-08
O=C(NCc1ccco1)C1CCN(S(=O)(=O)c2cccc3cccnc23)CC1,0%,0.3%,/,/,/
O=C(Nc1ccc2c(c1)OCO2)C1CCCN1C(=O)OCc1ccccc1 (stereo not given),?,-0.1%,/,/,/
COc1ccc(NC(=O)[C@@H]2[C@@H]3C(=O)N(C4CCCCC4)C(=O)[C@@H]3C3c4ccccc4C=CN32)cc1 (stereo not given in full),6%,3.7%,i,i,1.8e-09
CC(N)=NCCC[C@H](N)C(=O)O,4%&-1%,-0.5%&0.1%,i,i,1e-09
O=C(CN1C(=O)c2ccccc2C1=O)N1CCOCC1,2%,0.0%,i,i,3.6e-08
Cc1cc2n(n1)C(c1c[nH]c3ccccc13)Nc1ccccc1-2 (stereo not given),2%[11.4 µM],1.7%,i,i,9.9e-09
O=C(NC1CCN(C(=O)NCc2ccccc2)CC1)c1ccco1,-3%,-0.3%,i,i,5.9e-09
COc1cccc(-c2nnn(CC(=O)Nc3ccc(C)cc3C)n2)c1OC,-2%,-0.8%,i,i,5.5e-09
CCC1CCCCN1c1nc(-c2ccncc2)nc2ccccc12 (stereo not given),/,/,i,i,1.5e-08
CCCn1c(=S)[nH]c2cc(C(=O)N3CCCC(C(=O)OCC)C3)ccc2c1=O (stereo not given),?,2.2%,i,i,2.2e-09
COC(=O)c1sc(N2C(=O)c3oc4ccccc4c(=O)c3C2c2cccs2)nc1C (stereo not given),-23%,-0.1%,i,i,1e-09
O=C1CC(N2CCN(c3cccc(C(F)(F)F)c3)CC2)C(=O)N1c1ccc(F)cc1 (stereo not given),-28%,-3.3%,/,/,/
Nc1nc(C(=O)N2CCOCC2)nn1C(=O)c1ccc(Cl)cc1,0%,-1.2%,/,/,/
CCOc1ccc2[nH]c(=O)c(CN(CCCO)C(C)=O)cc2c1,-1%,0.3%,i,i,1e-09
Cn1c(SCC(=O)Nc2cccc(NC(=O)c3cccs3)c2)nnc1-c1ccncc1,2%,0.8%,i,i,6.6e-08
COc1cccc(C2C(C#N)=C(N)OC3=C2C(=O)CCC3)c1OC(=O)c1ccco1 (stereo not given),0%[11.4 µM],1.7%,i,i,2.4e-08
COc1cccc(C2/C(=C(\O)c3c(C)nc4c(C)cccn34)C(=O)C(=O)N2CCCN(C)C)c1OC (stereo not given),3%,-1.0%,i,i,2.8e-09
COc1ccc(S(=O)(=O)N2CCCC(C(=O)NCc3ccncc3)C2)cc1Cl (stereo not given),3%,0.9%,i,i,7.8e-09
SMILES,TSHR ag,AID923,Resorufin autofl,A488 autofl,A647 fluor
O=C1NC2(CCCCC2)N=C1c1ccccc1,?,1.2%,i,i,1e-09
CCCC(=O)N1c2ccccc2[C@@H](N(C(C)=O)c2ccccc2)C[C@H]1C,/,0.5%,i,i,6.6e-09
Cc1onc(-c2ccccc2)c1C(=O)Nc1ccc(S(=O)(=O)NC2=NCCCCC2)cc1,-3%[11.4 µM],0.4%,i,i,1.3e-09
COC(=O)c1ccc(Oc2nc(Nc3ccc(F)cc3)nc(N3CCCC3)n2)cc1,18%,0.0%,i,i,1e-09
Cc1c(C)n(C(=O)CN2CCN(c3ccccn3)CC2)c2ccccc12,?,1.5%,i,i,1.5e-08
O=C(NC1CCCCC1)C(c1ccccc1)N(Cc1ccco1)C(=O)Cn1cnc2ccccc21 (stereo not given),?,-4.3%,i,i,1.5e-08
CCCCNS(=O)(=O)c1cccc(S(=O)(=O)N2CCCC2)c1,1%,-0.2%,i,i,3e-08
NC(N)=NC[C@H](N)C(=O)O,?,0.2%[11.5 µM],i,i,3.1e-08
CC(=O)N=c1sc2nc3ccccc3nc2n1N(C(C)=O)C(C)=O,-3%,1.5%,i,i,3.7e-08
COc1ccc(CN2CC(C(=O)N3CCOCC3)CC2=O)cc1 (stereo not given),-4%,-0.7%,i,i,3.4e-08
CCOC(=O)C1CCCN(C(=O)c2sc3nc(-c4ccc(OC)cc4)cn3c2C)C1 (stereo not given),?,2.7%,i,i,3.3e-09
CCCNC(=O)c1ccccc1NS(=O)(=O)c1ccc(OC)c(OC)c1,?,-1.0%,i,i,1.6e-08
CC(C)OC(=O)Cn1cnc2ccc(Br)cc2c1=O,8%,-0.3%,i,i,8.8e-09
COc1ccc(-c2csc(N3CCN(Cc4ccc5c(c4)OCO5)CC3)n2)cc1,-6%,0.0%,i,i,6.7e-09
CCCCc1nc2ccccc2n2cc3c(=O)n(C)c(=O)n(C)c3c12,-3%,3.9%,/,/,/
CC(C)C(c1nnnn1C1CCCC1)N1CCN(c2ccccc2F)CC1 (stereo not given),?,0.1%,i,i,1.2e-08
Cc1nn2cc(-c3ccc(N)cc3)nc2s1,-7%,-0.1%,i,i,8.4e-09
Nc1nc(=O)c2[nH]cnc2n1O,9%[11.4 µM],0.2%[11.5 µM],i,i,2.5e-09
CCOc1ccc2nnnn2n1,2%[11.4 µM],0.6%,i,i,4.5e-09
COc1cccc(C(=O)OCc2ccccc2C#N)c1O,?,-0.2%,i,i,1.1e-09
CN(C(=O)c1cccc(C#N)c1)c1nnc(-c2ccccn2)s1,-10%,0.4%,i,i,1.7e-08
O=c1c2c3c(sc2ncn1/N=C/c1ccco1)CCCC3,4%,2.2%,/,/,/
C[C@@H]1C[C@H](Nc2ccccc2)c2ccccc2N1C(=O)c1cccnc1,/,/,i,i,?
O=C(NCc1ccc(F)cc1)C1CCCN(S(=O)(=O)c2cccnc2)C1 (stereo not given),0%,0.2%,i,i,4.2e-09
O=CN1CCN(C2CC(=O)N(c3ccc4c(c3)OCO4)C2=O)CC1 (stereo not given),-2%,-1.9%,i,i,1.2e-08

# Record cards, from the list above.
# CN(C(=O)c1cccc(C#N)c1)c1nnc(-c2ccccn2)s1 in the list: TSHR ag = -10%; AID923 = 0.4%; Resorufin autofl = i; A488 autofl = i; A647 fluor = 1.7e-08
# Nc1nc(C(=O)N2CCOCC2)nn1C(=O)c1ccc(Cl)cc1 in the list: TSHR ag = 0%; AID923 = -1.2%; Resorufin autofl = /; A488 autofl = /; A647 fluor = /

# At a glance, part of the list above.
SMILES,TSHR ag,AID923,Resorufin autofl,A488 autofl,A647 fluor
CCCCc1nc2ccccc2n2cc3c(=O)n(C)c(=O)n(C)c3c12,-3%,3.9%,/,/,/
CC(C)C(c1nnnn1C1CCCC1)N1CCN(c2ccccc2F)CC1 (stereo not given),?,0.1%,i,i,1.2e-08

# (continued)
SMILES,TSHR ag,AID923,Resorufin autofl,A488 autofl,A647 fluor
c1ccc2cc(OCCN3CCCC3)ccc2c1,15%[11.4 µM],2.0%,/,/,/
Fc1ccc(-c2nnc(Cc3nnc(-c4ccc(F)cc4)o3)o2)cc1,/,1.9%,i,i,2.6e-09
COc1ccccc1NC(=O)Cc1nn(C)c(=O)c2ccccc12,27%,0.7%,i,i,2.7e-08
O=C(O)[C@H](Cc1c[nH]c2ccccc12)N1C(=O)c2ccccc2C1=O,3%[11.4 µM],-4.6%[11.5 µM],i,i,2e-08
Cc1ccc2c(c1)NCCO2,-13%,1.5%,i,i,1e-09
Cc1ccc(-c2c3c(=O)n(C)c(=O)n(C)c3cn2CCCN2CCOCC2)cc1,0%,1.9%,i,i,9.2e-09
Cc1cc(C(=O)CSc2nncs2)c(C)n1-c1ccc2c(c1)OCO2,?,0.2%,i,i,3.7e-08
CC[C@@H](c1ccc2cc(O)ccc2c1)C(C)(C)C(=O)O,2%[11.4 µM],1.8%[11.5 µM],i,i,5e-08
O=C(O)COc1ccccc1C1C2C(=O)N(c3ccccc3)C(=O)C2ON1c1ccccc1 (stereo not given),-8%,0.5%,i,i,2.4e-08
COc1ccc(S(=O)(=O)N(C)CC(=O)Nc2ccc(F)cc2)cc1,-7%,-1.3%,i,i,3.1e-09
CN(C)CCNc1oc(-c2ccccc2F)nc1C#N,4%,0.9%,/,/,/
CCOC(=O)c1[nH]c(C)c(C(=O)Nc2ccc(C)c(F)c2)c1C,?,-1.0%,i,i,8.5e-09
CN1CCNC(=O)C1CC(=O)O (stereo not given),?,0.1%,i,i,1e-09
COC(=O)c1[nH]c2cc(OC)ccc2c1NC(=O)CCN1CCCC(C)(C)C1,/,/,i,i,3.6e-08
Nn1cc(-c2ccccc2)nc1SCC(=O)NC1CCS(=O)(=O)C1 (stereo not given),-9%,-1.2%,i,i,1e-09
CSc1nsc(SC)c1NC(=O)OCCc1ccccn1,13%,0.7%,i,i,1e-09
Cc1noc(C)c1C(=O)N1CCC2(CC1)CN(c1ccccc1)C2,-1%,1.4%,i,i,8.8e-09
Cc1c(NC(=O)COC(=O)C2CC3C=CC2C3)c(=O)n(-c2ccccc2)n1C (stereo not given),-1%,-1.5%,i,i,4.5e-08
COC(=O)C(C)Sc1ccc2nnc(-c3ccc(F)cc3)n2n1 (stereo not given),1%[11.4 µM],-1.5%,i,i,1e-08
O=C(COc1ccc(S(=O)(=O)N2CCCC2)cc1)NCc1ccco1,0%,-0.3%,i,i,1e-09
O=C(NCc1ccoc1)c1ccc(NC(=O)c2ccccc2Cl)cc1,-10%,0.4%,i,i,1e-09
CCOC(=O)c1[nH]c2ccc(F)cc2c1NC(=O)CCN1CCSCC1,/,/,i,i,4.5e-08
CCCCc1c(O)nc(SCC(=O)c2ccccc2)[nH]c1=O,13%,0.6%,i,i,1e-09
Cc1cccc(-n2c(N)cc(=O)nc2SCC(=O)NC2CCCCC2)c1,2%,1.1%,i,i,5.4e-08
Cc1ccccc1OCc1nc2ccccc2c(=O)n1/N=C/c1ccco1,?,-1.5%,i,i,1.4e-09
SMILES,TSHR ag,AID923,Resorufin autofl,A488 autofl,A647 fluor
O=C(NCCCN1CCCC1=O)c1ccc2c(c1)OCO2,1%,-0.3%,i,i,1e-09
O=C1c2ccccc2C(=O)N1CCCc1nc2ccccc2c(=O)n1CCCn1ccnc1,2%,-0.9%,i,i,3.6e-08
Cc1ccccc1OCc1nnc2n1CC(C)S2 (stereo not given),4%,-0.8%,/,/,/
COc1ccc(/C=N/O)cc1COc1ccc(NC(C)=O)cc1,6%,0.6%,/,/,/
COc1cc(S(=O)(=O)N2CCN(Cc3ccc4c(c3)OCO4)CC2)c(C)cc1C,67%,2.1%,/,/,/
CCCOc1ccc(C2C(=O)N(C3CCCCC3)CC(=O)N2C2CC2)cc1OC (stereo not given),4%,-0.8%,i,i,2.8e-09
CN1CCN(c2ncnc3ccc(-c4cccc(NS(C)(=O)=O)c4)cc23)CC1,2%,-0.5%,i,i,2.7e-08
CCOC(=O)N1CCN(C(=O)CN(c2ccc3c(c2)OCO3)S(C)(=O)=O)CC1,-5%,0.5%,i,i,1e-09

# Copied from the list:
# `O=C(NCCCN1CCCC1=O)c1ccc2c(c1)OCO2` in TSHR ag: 1%
# `O=C1c2ccccc2C(=O)N1CCCc1nc2ccccc2c(=O)n1CCCn1ccnc1` in TSHR ag: 2%
# `Cc1ccccc1OCc1nnc2n1CC(C)S2` (stereo not given) in TSHR ag: 4%
# `COc1cc(S(=O)(=O)N2CCN(Cc3ccc4c(c3)OCO4)CC2)c(C)cc1C` in AID923: 2.1%

# Compound activity as filed in PubChem.

# The list is partial; the hit share may differ from the screen's.
